Screening data from PubChem BioAssay.
MARV entry inh: qHTS for inhibitors of binding or entry into cells for Marburg Virus. 300,000 tested, 1.8% active. Potency, µM (top dose mostly 37.8 µM), inactives show at the top dose activity change, negative = inhibition, actives largely listed as inhibitors. AID 540276, 2011. Marburg virus pseudotyped entry inhibition, cell reporter; control for the full effect not named in the record; about a third of the inactives were read at about 46 µM; active = well fitted inhibition curve with a large enough effect; inconclusive = small, poorly fitted or top-dose-only effect, or effect the other way; inactive = flat fitted curve, though single readings scatter; tested in HEK293 cells; about a fifth of its hits are not listed in these tables; note: % is set by controls: 0 for no effect and ±100 for the full control effect; luciferase read-out
Cruzain inh noDet: qHTS Assay for Promiscuous and Specific Inhibitors of Cruzain (without detergent) | Cruzipain (Trypanosoma cruzi), P25779 | purified cruzain, Z-FR-AMC fluorescence, no detergent | Potency, µM, for inactives: max response, negative = inhibition, hits mostly inhibitors | 200,000 tested, 2.3% active;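 note: plate controls were enzyme without inhibitor for no effect and buffer without enzyme for full effect; nearly all actives have a fitted effect of over 40% in size; top concentration of the series not given in the record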
Target sequence (P25779 123-467 limits assumed): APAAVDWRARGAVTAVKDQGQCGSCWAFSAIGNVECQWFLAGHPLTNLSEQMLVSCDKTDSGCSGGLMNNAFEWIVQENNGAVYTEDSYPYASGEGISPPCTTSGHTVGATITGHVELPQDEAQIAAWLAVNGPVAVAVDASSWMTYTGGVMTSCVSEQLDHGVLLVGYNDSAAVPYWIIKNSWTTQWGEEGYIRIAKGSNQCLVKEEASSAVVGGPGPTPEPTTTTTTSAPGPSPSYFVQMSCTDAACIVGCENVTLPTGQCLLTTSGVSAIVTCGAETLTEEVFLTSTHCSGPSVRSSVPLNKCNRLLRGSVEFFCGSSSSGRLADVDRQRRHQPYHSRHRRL
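Purified cruzain at 1.5 nM, pre-incubated 15 min with compound at room temperature in 100 mM sodium acetate pH 5.5, 5 mM DTT, 0.00005% Triton X-100. Reaction started with 2 uM Z-FR-AMC; AMC fluorescence increase over 60 s gives rate.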
SARS PLP yeast: qHTS of Yeast-based Assay for SARS-CoV PLP; S. cerevisiae expressing SARS-CoV PLpro, growth rescue; control for the full effect not named in the record; 330,000 tested, 0.19% active; Potency, µM (doses to about 32.9 µM), for inactives: top-dose activity, positive = growth rescue; active means well fitted rising curve with a large enough effect; inconclusive means small, poorly fitted or top-dose-only effect; inactive means no such curve, though single readings can be large or run the other way; note: 0% is about no effect; nearly all actives have a fitted effect of over 55% in size; growth read by luminescence after 48 h
2A StopGo: High Throughput Screening for Foot and Mouth Disease Virus Antivirals | Potency, µM (highest dose often 57.9 µM), without a hit: top-dose signal change, negative = less light | human cells with a luciferase reporter of 2A StopGo recoding; control for the full effect not named in the record | 410,000 tested, 1.2% active; active = well fitted falling curve with a large enough effect; inconclusive = small, poorly fitted or top-dose-only effect; inactive = no such curve, though single readings can be large or run the other way; tested in HEK293T cells; note: % is set by controls: 0 for no effect and ±100 for the full control effect; nearly all actives have a fitted effect of over 45% in size; luciferase light after 4 h
Cruzain Triton: qHTS Assay for Promiscuous and Specific Inhibitors of Cruzain (with detergent); purified cruzain, Z-FR-AMC fluorescence, 0.01% Triton; Potency, µM, for inactives: max response, negative = inhibition, actives largely listed as inhibitors; Cruzipain (Trypanosoma cruzi), P25779; 200,000 tested, 0.43% active;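 note: plate controls were neutral wells for no effect and buffer without enzyme for full effect; nearly all actives have a fitted effect of over 40% in size; top concentration of the series not given in the record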
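Steps: dispense cruzain (1.5 nM final) in acetate buffer pH 5.5 with DTT and 0.01% Triton X-100; pin-transfer compounds; incubate 15 min RT; add Z-FR-AMC (2 uM final); read fluorescence every 30 s, using the 60 s intensity change.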
NS1 inh: qHTS Assay for Inhibitors of Influenza NS1 Protein Function; AID 2326, 2010; Potency, µM (doses to about 46.1 µM), without a hit: at the highest dose activity, positive = more growth; S. cerevisiae slowed by influenza A NS1, growth recovery by OD600; 270,000 tested, 0.4% active; active means well fitted rising curve with a large enough effect; inconclusive means small, poorly fitted or top-dose-only effect; inactive means no such curve, though single readings can be large or run the other way; note: nearly all actives have a fitted effect of over 50% in size
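In this qHTS, NS1 from influenza A is expressed in budding yeast, where it slows growth. Cells are switched from glucose to 2% galactose medium (pH 6.0, -URA), treated with compound, and growth recovery is read at OD600.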
Lassa entry inh: qHTS for Inhibitors of binding or entry into cells for Lassa Virus; Lassa virus pseudotype entry inhibition, cell reporter; control for the full effect not named in the record; Potency, µM (highest dose often 37.9 µM), inactives show at the top dose activity change, negative = inhibition, hits mostly inhibitors; 300,000 tested, 1.2% active; AID 540256, 2011; active means well fitted inhibition curve with a large enough effect; inconclusive means small, poorly fitted or top-dose-only effect, or effect the other way; inactive means flat fitted curve, though single readings scatter; tested in HEK293 cells; note: % is set by controls: 0 for no effect and ±100 for the full control effect; nearly all actives have a fitted effect of over 50% in size; luciferase read-out
RE007 growth inh: qHTS Assay for Inhibitors of the HIV-1 protein Vpr; AID 651644, 2012; S. pombe RE007 Vpr strain, BacTiter-Glo ATP luminescence, 24 h; control for the full effect not named in the record; Potency, µM (doses to about 92.2 µM), inactives show at the top dose activity change, negative = less growth; 360,000 tested, 0.21% active; active = well fitted falling curve with a large enough effect; inconclusive = small, poorly fitted or top-dose-only effect; inactive = no such curve, though single readings can be large or run the other way;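 note: % is set by controls: 0 for no effect and ±100 for the full control effect; nearly all actives have a fitted effect of over 50% in size; the assay follows cell death caused by Vpr and the record does not say whether a fall means rescue or toxicity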
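Fission yeast RE007 carrying one integrated HIV-1 vpr copy, seeded at OD 0.01 in PMG+AL medium with 23 nL pinned compound. Grown 24 h at 30 degrees; viability read by BacTiter-Glo luminescence after 5 min.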
The depositor's hits bear a star; ? = inconclusive; · = not tested or not shown; & = joins results of further samples; [ ] = another dose, or the depositor's remark. Unless noted, calls come from the whole dose curve; as a rule, active = well fitted curve in the direction sought with a large enough effect; inconclusive = small, poorly fitted or top-dose-only effect, or another doubt; inactive = no such curve, though single readings can be large; an effect the other way counts as inactive or inconclusive. Potency is the fitted concentration of half-maximal effect.

SMILES	MARV entry inh	Cruzain inh noDet	SARS PLP yeast	2A StopGo	Cruzain Triton	NS1 inh	Lassa entry inh	RE007 growth inh
O=C(NCC1CCCO1)C(c1cccs1)N(Cc1ccccc1)C(=O)c1ccc(-c2ccccc2)[nH]1 (stereo not drawn)	?	27%	9%	-2%	-9.9%	?	-28%	8%
Cc1ccc(Nc2nc(C)c(CCC(C)C)c(=O)[nH]2)cc1	3%	6%	-4%	-13%	2.9%	9%	-19%	-4%
NC(=O)c1ccsc1NC(=O)CCS(=O)(=O)c1ccc(F)cc1	-12%	·	6%	?	·	·	9%[46.1 µM]	-5%
COC(=O)CSc1nnc(CNC(=O)c2ccccc2OC)n1C	2%	12%	-3%	-13%	8.5%	1%	-21%[14.3 µM]	-1%
Cc1cc(C)c2cc(C#N)c(NCCNC(=S)NCCCN3CCOCC3)nc2c1	·	·	1%	-11%	·	-6%	·	-7%
Cn1c(Oc2ccc(Cl)c3cccnc23)nc2c1c(=O)n(Cc1ccccc1Cl)c(=O)n2C	1%	-1%	-2%	·	5.2%	16%	·	·
CC(=O)Nc1ccc(C(=O)C(Cc2ccccc2)N(C)C)cc1 (stereo not drawn)	15%[46.1 µM]	·	-1%	-2%	·	6%	-25%[46.1 µM]	-11%
Cc1cc(CNC(=O)COc2ccccc2)c2ccccc2n1	?	·	-2%	-24%	·	·	?	-5%
Cc1csc(=O)n1CCC(=O)OCC(=O)NCc1ccc(Cl)cc1Cl	-4%	·	-1%	-9%	·	·	1%	10%
CCNc1nc(Oc2ccc(=O)n(-c3ccccc3)n2)nc(N(C)C)n1	-23%[46.1 µM]	13%&-17%	-3%	-20%&-12%	-2.5%&3.9%	8%	14%[46.1 µM]	13%
COc1cccc(-n2nc(C(=O)N3CC(C)CC(C)C3)c3ccccc3c2=O)c1 (stereo not drawn)	0%	-6%	0%	-11%	2.1%	-3%	-3%	-9%
CCOC(=O)c1ccc(NC(=O)c2c(NCc3cccs3)sc3c2CCCCC3)cc1	·	-1%	·	6%	-29%	·	?	·
COc1ccc2nc(NNC(=O)C3COc4ccccc4O3)sc2c1 (stereo not drawn)	4%	-9%	-15%	3%	-2.8%	-8%	-10%	16%
CCn1c(O)c(/C=N/N=C/c2ccccc2)c2ccc(C3=NNC(=O)CC3)cc21	-23%	?	-10%	?	-3.4%	14%	?	-12%
CC1CCCN(S(=O)(=O)c2ccc(C(=O)NC(C)c3ccccc3)cc2)C1 (stereo not drawn)	3%	·	9%	-9%	·	·	-3%	0%
O=C(O)c1ccc(CSc2nc3ccc(NC(=O)c4ccccc4C(=O)O)cc3s2)cc1	1%[46.1 µM]	·	0%	-3%	·	·	14%	5%
Cn1cc(/C=C(\C#N)C(=O)Nc2ncc(Cc3ccc(Cl)cc3)s2)c2ccccc21	1%	7.9µM*	12%	-13%	-3.5%	8%	4%	-2%
Cc1ccc(C)c2[nH]c(=O)c(CCNC(=O)CCc3ccccc3)cc12	·	·	9%	-2%	·	0%	·	10%
O=C(Nn1cnnc1)c1ccccc1Cl	3%[46.1 µM]	·	4%	2%	·	?	19%[46.1 µM]	9%
Cc1ccc(Cc2cnc(N)s2)o1	16%	-9%	4%	?	2.5%	2%	24%	12%
CCCCc1cc(C)c(S(=O)(=O)c2ccccc2C)c(=O)[nH]1	·	·	0%	-16%	·	-1%	·	-7%
Fc1ccccc1CNc1nc(-c2cccnc2)nc2ccccc12	?	·	-4%	3%	·	-68%	?	-11%
COc1cccc(CN2CCN(Cc3nc(-c4cccc(F)c4F)oc3C)CC2=O)c1	-18%[46.1 µM]	·	0%	-13%	·	-7%	-9%	-10%
c1ccc(Cc2nnc(N3CCCCC3)c3ccccc23)cc1	-1%[46.1 µM]	·	-4%	-12%	·	·	3%	4%
CCOC(=O)c1c(NC(=S)Nc2ccc(Cl)cc2)sc2c1CCN(C)C2	-27%	?	-33%	7%	-23%	-2%	19%	0%
COc1ccc2c(c1)O/C(=C\c1sccc1C)C2=O	10%	4%	10%	0%	-10%	-3%	30%	-17%
COCCCn1c(SCc2ccc(OC)cc2)nc2cc(OC)c(OC)cc2c1=N	9%	?	-3%	-16%	-7.1%	21%	-6%	0%
CCOC(=O)Cc1csc(NC(=O)CSc2nnc(C3CC3)n2C)n1	-1%	7%	-17%	-6%	-0.4%	3%	?	-5%
C/C(Cl)=C\CSc1nnc2n(N)c(=O)c3ccccc3n12	-14%	-4%	-11%	15%	4.1%	-2%	-1%	3%
Cc1ccnc(NC(=O)c2cccc(NC(=O)COc3ccccc3)c2)c1	2%	0%	-8%	·	2.6%	-29%	-31%	?
NC(=O)C1CCN(S(=O)(=O)c2ccc(N3CCCCS3(=O)=O)cc2)CC1	·	4%	·	-2%	-0.8%	·	?	·
CCN(CC)S(=O)(=O)c1ccc(C(=O)N(c2ccccc2)C2C=CS(=O)(=O)C2)cc1 (stereo not drawn)	0%[46.1 µM]	·	-1%	-11%	·	-1%	-2%[46.1 µM]	4%
COc1ccc2c(c1)C(C)=CC(C)(C)N2S(=O)(=O)c1ccc(NC(C)=O)cc1	1.1µM*	·	-1%	-27%	·	-5%	·	5%
COc1ccc(CNC(=O)CCNS(=O)(=O)c2ccc3c(c2)CCCC(=O)N3)cc1	·	-13%	·	-26%	3.5%	·	?	·
O=C(CSc1nnc(NC(=O)c2c(F)cccc2Cl)s1)Nc1ccccc1F	15%	·	5%	36%[activator]	·	7%	2%	3%
CCOC(=O)C1CCCN(S(=O)(=O)c2ccc3[nH]c(=O)ccc3c2)C1 (stereo not drawn)	·	2%	·	?	-2.5%	·	0%[46.1 µM]	·
COCCCNCCCCOc1ccc(Br)cc1C	13µM*	-16%	-20%	-22%	-5.0%	-15%	?	3%
CCN(CC)CCCN=C(C)c1c(O)n(-c2ccccc2)c(=O)[nH]c1=O	3%	-1%	1%	-16%	2.6%	-1%	10%	3%
CC(OC(=O)Cn1c(C(F)(F)F)nc2ccccc21)C(=O)N1CCCc2ccccc21 (stereo not drawn)	28%	9%	4%	-25%	-2.1%	-1%	-19%	-2%
CCCCNC1C(CC)C(CCC)C(C#N)(C#N)C1(C#N)C#N (stereo not drawn)	?	1%	-4%	32µM*	0.1%	-87%	?	-16%
COc1ccc(C(C)=O)cc1CSCCC(=O)O	20%&20%	-9%	-4%	0%	1.3%	3%	-1%	15%
COCCCN1C(=O)C2C(C(=O)Nc3cccc(Cl)c3)C3C=CC2(O3)C1C(=O)NC1CCCCC1 (stereo not drawn)	0%[46.1 µM]	·	0%	-8%	·	2%	?	-11%
Cc1nc2ccccn2c1C(=O)NN=C1CCN(C)CC1	·	·	3%	3%	·	1%	·	-8%
CCOC(=O)C1=C(CSCC(=O)OC)NC(=O)NC1c1cc(C)ccc1C (stereo not drawn)	-2%	-5%	2%	-3%	4.9%	0%	16%	-1%
O=C(CCOc1ccccc1)OCC(=O)c1cc2ccccc2o1	?	-20%	-2%	-8%	-12%	-52%	7%	4%
C=CCN(CC=C)S(=O)(=O)c1ccc2nc(NC(=O)C(C)C)sc2c1	?	7%	-3%	1%	-3.0%	-36%	?	-11%
COc1cccc(C2/C(=C(\O)c3ccc4c(c3)OCCO4)C(=O)C(=O)N2c2nnc(C)s2)c1 (stereo not drawn)	·	·	-3%	-4%	·	11%	·	8%
CCOC(=O)C1CCN(S(=O)(=O)c2cccc3nonc23)CC1	-5%[46.1 µM]	5%	7%	4%	5.6%	-4%	1%	16%
CCOc1ccc(CCNC(=O)C2CCN(S(=O)(=O)c3ccc(C)cc3)CC2)cc1OCC	?	·	-4%	-21%	·	-4%	?	6%
CCOC(=O)c1c(NC(=O)COc2ccccc2Br)sc2c1CCCCC2	·	2%	·	-7%	-6.1%	·	-2%[46.1 µM]	·

Next entries
SMILES	MARV entry inh	Cruzain inh noDet	SARS PLP yeast	2A StopGo	Cruzain Triton	NS1 inh	Lassa entry inh	RE007 growth inh
O=C(CCCN1C(=O)c2ccccc2C1=O)NCCCN1CCOCC1	?	6%	-2%	-25%	6.4%	0%	1%	-4%
Cn1cc([N+](=O)[O-])cc1-c1nc2ccccc2n1C	·	·	1%	-9%	·	-1%	·	4%
COc1ccc(-c2c(C)nn3c(C(F)(F)F)cc(-c4ccc(Br)cc4)nc23)cc1	0%[46.1 µM]	1%	·	1%	-0.7%	·	-1%[46.1 µM]	·
COc1cccc(CNC(=O)C(Cc2ccccc2)NS(=O)(=O)c2ccc3c(c2)CCN3C(C)=O)c1 (stereo not drawn)	?	-1%	·	0%	-5.7%	·	1%[46.1 µM]	·
Cc1ccc(S(=O)(=O)N2CCN(C(=O)COc3ccc(Br)cc3)CC2)cc1	?	·	-1%	-21%	·	·	-27%	9%
Cc1ccc(-c2nc(N3CCOCC3)sc2C(=O)N2CCCCC2)cc1	-27%	9%	21%	-2%	0.0%	-15%	9%	·
O=C(OCC(=O)N1CCCc2ccccc21)c1cc(Cl)ccc1O	-14%[46.1 µM]	·	?	2%	·	4%	-14%[46.1 µM]	6%
CC(=O)Nc1ccc(/C=C(\C#N)C(=O)NC2CCCCC2C)cc1 (stereo not drawn)	18%[46.1 µM]	·	2%	-19%	·	·	0%[46.1 µM]	5%
Cc1ccsc1/C=C1\C(=O)NC(=S)N(C)C1=O	·	·	1%	32µM*	·	2%	·	-1%
N#Cc1ccc(N2CCNCC2)c(F)c1	-3%	-3%	10%	-21%	8.8%	-4%	-2%	-20%
CCC1CN(C(=O)NCc2ccc(F)cc2)c2cc(C)ccc2O1 (stereo not drawn)	·	-26%	-3%	-26%&0%	-5.0%	-5%	?	-1%
Cc1c(Cl)cccc1NC(=O)Nc1cnccn1	·	·	2%	17%	·	-7%	·	6%
